# Yeast UUG start: modulators of yeast start codon fidelity, primary screen, whole organism, S. cerevisiae, single point, plate reader. S. cerevisiae UUG-firefly luciferase reporter, luminescence/redox ratio. activity score, % at 18.7 µM. 0.13% of 350,000 active. AID 602363, 2012;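 active means replicate mean at a twofold rise or more, about +100% in these data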;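 further: firefly luciferase made from a UUG start codon reports start codon fidelity; reporter light over untreated wells divided by growth signal over untreated wells; some hits fall short of that in this replicate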
# CSC inhib: cancer stem cell viability inhibitors, primary screen, luminescence. cancer stem cell-like cells viability. AID 2717, 2010. inhibition, % at 7.5 µM. 1.1% of 300,000 active;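 active means mean at 75% or more and at least half the replicates too; inconclusive means mean and replicates disagree; tested in HMLE shEcad cells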;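 further: 0% = median of negative and 100% = median of positive control wells; the first replicate is given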
# eIF4H inh: human eIF4H binding inhibitors, primary screen, translation initiation inhibitor project, biochemical, uHTS, fluorescence polarization. Eukaryotic translation initiation factor 4H (Homo sapiens), Q15056. inhibition, % at 35 µM. eIF4H fluorescence polarization binding assay. 0.94% of 290,000 active. AID 2012, 2009;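 active means 50% or more with normal probe brightness, or confirmed in later tests; inconclusive means above 50% with abnormal brightness, or retests that disagree; inactive means below 50% or failed in later tests; about a fifth of its hits are not listed in these tables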;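 further: calls also rest on retests at 20 µM and on dose response follow-up; 0% = protein and probe with vehicle and 100% = probe without protein; strong numbers were not always called active; many hits fall short of the cut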
# Rce1 inh: yeast Rce1p protease inhibitors, primary screen, biochemical, fluorescence, cell-free homogeneous; CAAX prenyl protease 2 (Saccharomyces cerevisiae (strain ATCC 204508 / S288c)), Q03530; yeast membranes, quenched prenylated peptide cleavage fluorescence; calls only; 0.27% of 290,000 active; AID 2563, 2010;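 active means fall in fluorescence gain of 50% or more versus controls, with final raw signal at or below 3038400; inconclusive means same 50% fall but final raw signal above 3038400; inactive means fall in fluorescence gain under 50%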;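 further: plate controls were neutral control wells for no effect and wells lacking membranes for full effect; tested at 10 µM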
# Target sequence (Q03530 whole entry, looked up): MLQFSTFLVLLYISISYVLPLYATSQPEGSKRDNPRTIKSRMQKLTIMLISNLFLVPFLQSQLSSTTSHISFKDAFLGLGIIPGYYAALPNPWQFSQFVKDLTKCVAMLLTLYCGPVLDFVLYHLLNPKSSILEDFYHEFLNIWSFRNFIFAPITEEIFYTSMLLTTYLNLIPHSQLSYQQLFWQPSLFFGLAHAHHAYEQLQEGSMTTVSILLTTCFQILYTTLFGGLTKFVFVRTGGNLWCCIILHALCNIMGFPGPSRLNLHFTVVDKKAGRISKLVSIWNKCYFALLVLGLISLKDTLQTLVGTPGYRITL
# Env fusion inh: inhibitors of HIV-1 Env-driven cell-cell fusion, primary screen, HeLa-JRFL effector, CEM21 target cells, luciferase. inhibition, % at 12.3 µM. AID 651610, 2012. 1.1% of 360,000 active;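 active means mean replicate inhibition score of at least 50 and every replicate individually at or above 50; inconclusive means only one of the two criteria met; inactive means mean below 50 and not all replicates reaching 50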;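 further: 0% = plate neutral controls and 100% = maraviroc near 300 nM; one replicate is shown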
# PABP FP inh: PABP poly(A) RNA binding inhibitors, primary screen, biochemical, fluorescence polarization, uHTS; 1% of 290,000 active; Polyadenylate-binding protein 1 (Homo sapiens), P11940; AID 2014, 2009; inhibition, % at 35 µM;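 active means 50% or more with normal probe brightness, or confirmed in later tests; inconclusive means above 50% with abnormal brightness, or retests that disagree; inactive means below 50% or failed in later tests; about a fifth of its hits are not listed in these tables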;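 further: calls also rest on retests at 20 µM and on dose response follow-up; controls were probe without protein and protein plus probe with vehicle; some compounds called inactive have numbers as strong as hits; many hits fall short of the cut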
# MT1-MMP act inh: blockers of MT1-MMP proenzyme processing, primary screen, HT1080 RFP-PRO-GFP cells, GFP/RFP fluorescence | 0.061% of 360,000 active | GFP/RFP ratio fluorescence, overnight; percent of plate control window, DMSO zero | AID 651647, 2012 | GFP/RFP ratio change, % at 20 µM | Matrix metalloproteinase-14 (Homo sapiens), P50281;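 active means GFP/RFP ratio change of at least 30% with cell ATP level not reduced by more than half and red fluorescence within 50% of control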; further: strong numbers were not always called active
#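 Material – HT1080 RFP-PRO-GFP cells · Control set – DMSO wells and RFP-L50D-GFP cells · Incubation – overnight cell settling, then overnight compound exposure, 37 °C, 5% CO2 · Compound dosing – single-point 20 µM compound, 1% DMSO · Read-out – GFP/RFP fluorescence ratio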
# eIF4H inh retest: recorded beside eIF4H inh, whose call it bears; inhibition, %; compound at 20 µM; confirmation average;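 mean of two retest wells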
# PABP FP inh retest: also measured in PABP FP inh; calls as there; inhibition, %; compound at 20 µM; confirmation repeats;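 mean of two retest wells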
# MT1-MMP act inh RFP: also measured in MT1-MMP act inh; calls as there; RFP signal change, %; measured here: RFP expression control read;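 0 = vehicle wells; hits needed this value within 50% of zero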
# The depositor's hits bear a star; i = inactive; ? = inconclusive; · = no result given.
SMILES,Yeast UUG start,CSC inhib,eIF4H inh,Rce1 inh,Env fusion inh,PABP FP inh,MT1-MMP act inh,MT1-MMP act inh RFP,others
O=C(C1CCCN(S(=O)(=O)c2ccc(F)cc2)C1)N1CCCCC1 (stereo unspecified),·,12.1,3.8,i,-0.5,8.0,3.5,0.1,
COc1ccccc1C1N=C(c2ccccc2C)NO1 (stereo unspecified),-22.8,-7.0,-5.8,i,-56.4,2.4,-2.2,-0.7,
CCN(CC)c1ccc(NC(=O)OC)cc1,-18.5,-18.6,6.4,i,8.6,1.0,-0.2,1.5,
CC1CCN(S(=O)(=O)c2ccc3[nH]c(=O)[nH]c3c2)CC1,-20.6,·,4.3,i,7.9,-1.8,-0.8,0.1,
OCc1nc2ccccc2n1Cc1ccc(Cl)cc1,-23.8,-6.7,2.1,i,-10.2,4.1,4.3,-8.7,
C[C@H]1CN=C(Nc2ccccc2)N1CC1CCCCCC1,-17.8,0.9,-12.8,i,2.9,11.0,3.1,3.8,
CC(C(=O)Nc1ccc(C#N)cc1)N(C)CC(=O)Nc1cccc(F)c1 (stereo unspecified),-13.7,0.8,-4.1,i,6.6,3.3,-1.3,-2.9,
COc1ccc(Cl)cc1NS(=O)(=O)c1cccc(C(=O)NCC(C)(C)N2CCOCC2)c1,-8.1,·,·,·,-2.6,·,-2.8,-2.3,
COc1ccc(-c2cc(=O)oc3cc(OC(C)C(=O)NCCCn4ccnc4)ccc23)cc1 (stereo unspecified),-22.9,44.8,9.0,i,·,13.8,-1.2,-11.4,
O=C(Nc1ccncc1)c1cc(-c2ccccc2)nc2ccccc12,-7.1,·,·,·,-223.3,·,1.4,-4.4,
COc1ccc(C(=O)O)cc1F,-16.3,-1.6,-7.5,i,·,-3.6,0.2,3.4,
COc1cc2c(c(OC)c1OC)C(c1ccc(C)cc1)CC(=O)O2 (stereo unspecified),-2.8,·,·,·,22.3,·,6.0,6.0,
O=C(CC[C@H]1O[C@@H](n2cnc3c(NC(=O)c4ccccc4)ncnc32)[C@H](O)[C@@H]1O)NCCCN1CCCC1=O,-5.9,·,·,·,-9.6,·,-0.5,0.8,
CCOC(=O)C1(Cc2cccc(F)c2)CCN(Cc2nc(CC)[nH]c2C)CC1,-9.4,7.2,59.1,i,-18.1,20.2,-21.9,3.1,eIF4H inh retest=-8.7;PABP FP inh retest=11.0
O=C(NC1CCCCC1)c1ccc(-c2ccccc2F)o1,-52.7,-9.2,·,·,-206.0,·,-2.5,-2.6,
COC(=O)C1(c2ccccc2)NC(c2cccs2)C2C(=O)N(C)C(=O)C21 (stereo unspecified),-0.4,-11.0,-3.2,i,-96.2,-2.9,9.5,9.9,
CCOc1ccc(Br)cc1/C=N/NC(=O)c1ccncc1,-9.3,-14.0,-1.8,i,·,0.3,0.8,-0.4,
O=C(NC(=S)NCCc1ccc(Cl)cc1)c1ccco1,·,-1.6,-3.4,i,-11.7,-3.9,-4.0,-0.7,
Cc1noc(C)c1S(=O)(=O)N1CCCC(C(=O)Nc2nccs2)C1 (stereo unspecified),-9.2,-6.6,2.3,i,12.5,1.9,1.9,-6.4,
Cc1ccc(S(=O)(=O)N2CCCCC2)cc1NC(=S)NC(=O)c1ccco1,58.1,2.2,-12.5,i,16.5,-1.6,2.1,2.7,
COc1ccc(NC(=O)CSCC(=O)N(C)CC(=O)Nc2ccc(Cl)c(C(F)(F)F)c2)cc1,-10.0,-6.1,·,i,47.3,·,-2.3,-3.5,
CCCc1ccc(/C=C2\C(=O)c3ccccc3C(O)=C2C(=O)OCC)cc1,·,-14.0,3.0,i,·,9.9,·,·,
COc1ccc(NS(=O)(=O)c2ccc(NC(=O)c3ccc(N(C)S(C)(=O)=O)cc3)cc2)cc1,-5.3,35.3,0.6,i,·,-2.8,1.9,-28.3,
O=C(/C=C/c1cccc([N+](=O)[O-])c1)N(c1ccccn1)c1ccccn1,·,-19.2,-1.0,i,7.3,8.8,7.2,-0.6,
O=C(OCC(=O)c1ccccc1Br)c1ccncc1,-23.2,-6.3,2.0,i,-0.1,?,3.0,2.2,
CCOC(=O)[C@H]1[C@H]2COc3ccc(Cl)cc3[C@@H]2N2C(=O)CN(Cc3ccc(F)cc3)C(=O)[C@@]12C,-11.0,-8.1,·,·,-6.5,·,-3.6,-4.3,
O=C(NNC(=S)NC(=O)c1ccccc1)c1cccc([N+](=O)[O-])c1,-25.1,0.0,12.6,i,4.7,3.6,3.5,1.5,
c1cncc(-c2csc(NCc3ccco3)n2)c1,-12.7,-2.4,-7.6,i,-8.0,6.6,-6.7,-6.4,
CCOC(=O)c1c(-c2cccc([N+](=O)[O-])c2)csc1NC(=O)CCCOc1ccccc1OC,·,·,-5.0,i,·,-8.1,-1.2,-4.2,
O=C(COC(=O)c1cccc([N+](=O)[O-])c1)NNC(=O)c1cccs1,-9.8,-6.5,·,·,·,·,-2.6,5.6,
O=C(Nc1cccc(C(F)(F)F)c1)N1CCN(C(=O)Nc2cccc(C(F)(F)F)c2)CC1,-18.7,-2.0,-1.8,i,-5.4,1.6,3.1,2.8,
O=c1c2ccccc2nc2n1CCc1c-2[nH]c2ccccc12,-11.4,77.7*,·,·,-498.3,·,-1.7,-8.9,
COCCn1c(=NC(=O)CCS(=O)(=O)c2ccccc2)sc2cc(C)ccc21,-11.2,-3.9,-5.7,i,4.9,-1.0,-3.1,1.7,
CCOC(=O)CSC1=NC(=O)CS1,-15.4,-4.2,0.8,·,10.7,-4.0,-4.0,-0.8,
COC(=O)CCCC(=O)Nc1ccc(Cl)c(Cl)c1,-14.2,8.9,4.5,i,-15.8,-2.3,5.4,-1.5,
CCN1CCN(C(=S)Nc2sc(C)c(-c3ccccc3)c2C(=O)OC)CC1,-14.9,90.2*,-7.2,i,3.6,-2.0,1.1,-2.7,
O=C(CCCN1C(=O)/C(=C/c2ccccc2)SC1=S)Nc1cccc(O)c1,·,·,-6.2,·,9.9,1.5,4.3,0.0,
Nc1nc(CSc2nc3ccccc3s2)nc(N2CCOCC2)n1,·,-1.3,5.2,i,-10.9,-0.2,5.1,2.3,
CCN1C(=O)C2(C(C#N)=C(N)Oc3n[nH]c(C(C)C)c32)c2ccccc21 (stereo unspecified),-9.4,-1.0,-5.5,i,-89.9,3.0,2.6,-0.7,
O=C(O)CCN1C(=O)/C(=C\c2ccc(-c3nc4ccccc4s3)o2)SC1=S,-5.3,5.8,101.3*,i,·,92.5*,-11.1,11.1,
Cc1ccc2c(c1)N(CC(=O)NCc1ccco1)C(=O)C(C(C)C)O2 (stereo unspecified),-1.9,-12.5,-7.6,i,7.6,2.8,1.7,4.4,
COc1cccc(-c2cnc(C(O)c3ccc(-c4ccccc4)cc3)[nH]2)c1 (stereo unspecified),-20.0,·,·,·,-81.3,·,-0.7,-0.8,
Cc1ccc(Cn2ccc(NC(=O)c3cc(-c4ccc(Cl)cc4)on3)n2)cc1,·,-11.7,-9.1,i,-40.6,7.0,2.8,0.1,
O=C1/C(=C\c2ccco2)SC(=S)N1c1ccc(O)cc1,·,12.4,81.1*,i,·,2.9,3.6,4.4,eIF4H inh retest=70.5*;PABP FP inh retest=45.2
CCOc1ccc(NS(=O)(=O)c2ccc3[nH]c(=O)c(=O)[nH]c3c2)cc1,·,8.4,-5.3,·,16.5,-5.1,4.1,1.2,
Cc1ccccc1OCc1nnc(SCC(=O)O)n1-c1cccc(Cl)c1,-9.1,-34.8,-5.1,i,9.0,7.9,1.7,3.3,
CCOC(=O)C1CCCCN1Cc1cccc(Oc2ccccc2)c1 (stereo unspecified),-8.5,2.4,8.0,i,14.7,17.9,0.6,-2.0,
COc1ccc(NC(=O)C2CCN(S(=O)(=O)c3c(C)noc3C)CC2)cc1OC,-17.4,-14.9,-3.5,i,-10.1,-5.6,-5.3,-0.6,
Cc1cc(C)n(-c2nc3ccccc3[nH]c2=O)n1,-3.2,-12.3,47.3,i,·,6.7,-3.3,2.6,
O=[N+]([O-])c1cnccc1NC1CCCCC1,·,-9.0,-0.5,i,-1.3,4.3,2.1,2.4,
Cn1c(=O)c2c([nH]c(=S)n2Cc2ccc(Cl)cc2)n(C)c1=O,-18.1,-14.9,-17.9,i,7.5,16.2,1.0,3.2,
COc1ccc(NC(=O)c2cc(C)cc(C)c2)cc1[N+](=O)[O-],-9.9,-0.9,5.7,i,11.8,-10.1,3.4,6.2,
COc1ccc(Cl)cc1/C=C/c1ccc2cccc(O)c2n1,·,57.6,18.7,i,3.0,-1.0,9.4,0.4,
CC(C)N1CCN(Cc2cn[nH]c2C2CCCCC2)CC1CCO (stereo unspecified),·,-1.4,8.2,i,-10.4,8.6,-1.0,2.9,
CCOC(=O)C1(S(=O)(=O)c2ccccc2)CCN(Cc2ccc(Cl)cc2)CC1,16.2,15.3,1.5,i,36.0,3.3,3.2,-8.4,
CO/N=C/NC(=O)c1c(OC)ccnc1Oc1ccc(Cl)cc1,2.7,-7.6,-3.5,i,-4.0,-3.9,12.3,2.3,
CCN(CC(=O)N1CCOCC1)S(=O)(=O)c1ccc2ccccc2c1,-11.6,-9.7,-4.8,i,-10.2,-1.3,-0.6,-3.4,
CC(=O)c1c(C)[nH]c(C(=O)COC(=O)c2cc(C)oc2C)c1C,-3.3,·,·,·,6.1,·,2.1,-15.0,
O=C(NC1CCCC1)C(c1ccccn1)N(Cc1ccccc1F)C(=O)c1csnn1 (stereo unspecified),-9.1,-0.8,0.0,i,31.0,1.0,-0.6,3.7,
O=C(COc1ccccc1/C=C\c1nc(O)c([N+](=O)[O-])c(=O)[nH]1)Nc1ccccc1,·,·,11.2,·,-0.5,-2.8,3.8,-7.3,

# The listing continues:
SMILES,Yeast UUG start,CSC inhib,eIF4H inh,Rce1 inh,Env fusion inh,PABP FP inh,MT1-MMP act inh,MT1-MMP act inh RFP,others
COc1ccc(C(NC(=O)C2CCN(CCOc3ccc(Cl)cc3Cl)CC2)c2ccccc2C)cn1 (stereo unspecified),1.6,·,·,·,-7.8,·,-0.3,-5.8,
CCCc1nc2oc3c(NCCN(C)C)ncnc3c2c2c1CCCC2,-2.1,7.4,-1.2,i,-142.2,21.4,2.8,-4.6,
N#C/C(C(=O)c1ccccc1)=C1/CCCN1,-14.1,-4.2,0.4,i,-26.1,-8.8,8.9,1.1,
Cc1ccc(C(=O)NNC(=O)C2CCN(c3nc(C)cc(C)n3)CC2)cc1,-14.2,-5.3,-5.7,i,·,-1.1,1.0,1.2,
Cc1ccccc1CN(c1ccc(C(=O)N2CCN(C)CC2)cc1)S(C)(=O)=O,2.8,6.4,·,i,-14.4,·,3.4,5.0,
Cc1nc2ccccc2c(=O)n1/N=C/c1c(O)ccc2ccccc12,·,1.8,-2.8,i,6.8,7.5,0.6,2.0,
Cn1c(COc2ccccc2)nnc1SCC(=O)NCc1ccccc1,·,-25.9,6.1,i,·,-1.5,7.1,1.0,

# No enrichment for hits; about 2.9% have a hit in one of these screens.
